Screening results as filed in PubChem.
Bead autofluor: counter-screen for toxin protease inhibitors: compound fluorescence | compound autofluorescence counterscreen, microsphere flow cytometry; active compounds read high | fluorescence intensity (test concentration not listed) | 3.1% of 360,000 active;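 active = at least 3 SD above the mean of all compounds, about 16000 in these data; inconclusive = too few beads counted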;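 note: 100 nL of 1 mM stock went into each well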
ugtP null kill: growth inhibition of ugtP-null S. aureus, primary screen, RN4220 ugtP deletion, OD600; 16 h; some inactives read as strong as hits; growth inhibition, % (test concentration not listed); 0.54% of 330,000 active;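 active = z-score under -3 and OD600 up to 0.15 on both plates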;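 note: plate controls were untreated wells for no effect and antibiotic for full effect; wells of about 80 µL received 100 nL stock; the first replicate is given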
RN4220 kill: growth inhibition of S. aureus RN4220, primary screen, OD600 | 16 h | inhibition, % (concentration not given with the values) | 0.33% of 330,000 active | AID 1259311, 2017;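 active = z-score of -3 or lower and OD600 up to 0.18 on both plates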;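 note: plate controls were untreated cells for no effect and reference antibiotic for full effect; stock transfer was 100 nL into about 80 µL; one replicate is shown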
Mtb hypoxia inh: PubChem AID 1159583 | M. tuberculosis hypoxia-regulated fluorescent reporter, fluorescence | fluorescence inhibition, % (no concentration beside the values) | 0.1% of 300,000 active;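 active = 35 to 45% if threefold the growth effect, above 45% if 1.5-fold the growth effect; inactive = the rest, general growth blockers included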;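 note: wells of about 50 µL received 100 nL stock; 0% = vehicle wells and 100% = reference inhibitor wells; whole bacteria with a GFP reporter of the hypoxia response; strong numbers were not always called active; many hits fall short of the cut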
PrP 5UTR inh: inhibition of PrP 5' UTR reporter expression; 0.35% of 340,000 active; cell-based PrP 5' UTR mRNA reporter, plate reader; inhibition, % (concentration not given with the values);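 active = every replicate at 50% or more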;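 note: 0 = median of the neutral control wells; tested in H4 reporter cells; numbers are from one replicate; inactives centre near -14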
BJeLR viability: MLPCN primary cell-based screen for lethality selective to Ras in HRASV12 cells | BJeLR (HRASV12) viability, CellTiter-Glo ATP luminescence, 48 h; reference of the scale not given here | inhibition, % (test concentration not listed) | 0.17% of 300,000 active | AID 1554, 2009;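 active = replicate mean above 50%; inconclusive = above 50% but judged a plate artefact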;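 note: 50 nL library stock added to about 25 µL; numbers are from one replicate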
Mtb hypoxia inh growth: second read-out of Mtb hypoxia inh, no call of its own (marks repeat the call); growth inhibition, %; measured here: M. tuberculosis growth (absorbance);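 0% = vehicle and 100% = reference antibiotic; read after six days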
* marks the source's active call; other numbers are inactive results; ? = inconclusive; . = not tested or not shown. Random draw from the library, and some 4% of all compounds hit somewhere here.

SMILES	Bead autofluor	ugtP null kill	RN4220 kill	Mtb hypoxia inh	Mtb hypoxia inh growth	PrP 5UTR inh	BJeLR viability
COc1cccc(CNC(=S)Nc2cc(C)ccc2C)c1	4961	-12	5.4	13	-6	-16	-3
Cn1c(CNC(=O)c2ccc3c(c2)OCO3)nnc1SCC(=O)Nc1ccccc1Cl	5327	13	3.4	-11	19	-12	-15
O=C(CSc1nnc(-c2ccc([N+](=O)[O-])cc2)o1)Nc1ccccn1	3894	0	3.8	-1	12	-52	6
O=C(N/C(=C/c1ccco1)C(=O)N1CCOCC1)c1ccc([N+](=O)[O-])cc1	5579	13	1.6	12	8	-25	-8
CCOc1ccc(NS(=O)(=O)c2ccc(C(=O)NC3CCC(O)CC3)cc2)cc1 (configuration not stated)	5536	-4	-1.4	-8	0	4	0
CC(C)OC(=O)CCC(=O)Nc1nc2ccccc2s1	11452	-3	4.5	1	1	-53	2
COC(=O)c1cn(NC(=O)c2cc([N+](=O)[O-])ccc2F)c(=O)c2ccccc12	3756	.	.	.	.	-32	19
COc1ccc(C(CCN2CCCC(C)C2)c2c(OC)cc(OC)c3c(-c4ccccc4)cc(=O)oc23)cc1 (configuration not stated)	4436	-44	-3.6	22	23	-2	4
CN(C)c1ccc(C(=O)OCC(=O)NCC2CCCO2)cc1 (configuration not stated)	8208	-2	3.0	14	8	-29	2
COc1ccc(NC(=S)NCCc2ccc(S(N)(=O)=O)cc2)c(OC)c1	4161	-1	-5.5	-4	2	-2	-3
CC(=O)Nc1ccc(C(=O)/C=C/c2ccc[nH]2)cc1	5855	3	1.7	8	0	-54	-7
O=C(NCC(c1ccco1)N1CCCC1)c1cc2ccccc2s1 (configuration not stated)	16777*	4	5.0	0	-1	-16	.
O=C(Nc1cccc(C(=O)O)c1)/C(=C\c1ccc2c(c1)OCO2)NC(=O)c1ccc(Br)o1	2585	-5	-0.4	-6	-5	-4	3
O=C(CN1CCCCC1)N/N=C/c1ccccc1Br	2973	.	.	.	.	-30	10
OCc1nnc2c3ccccc3c(-c3ccccc3)nn12	9112	2	2.5	5	1	-17	-5
Nc1[nH]n2c(=O)c3c(nc2c1N=Nc1ccc(Cl)cc1)CCCC3	2197	14	24	.	.	-42	-12
Nc1ncc(Br)cc1S(=O)(=O)NCCC(=O)NCc1ccc(F)cc1	5569	-2	0.8	1	8	-20	-5
CCCC(=NNC(=O)Cc1csc(N2CCOCC2)n1)c1ccccc1	.	1	3.1	4	8	.	.
COc1ccc(CC(=O)NCC(=O)N/N=C/c2sccc2C)cc1	4820	.	.	.	.	-15	-1
O=Cc1ccccc1OCCN1CCCC1=O	5266	9	6.5	8	-10	.	-11
O=C(NC1CCCCC1)C1CC(=O)N(c2cccc([N+](=O)[O-])c2)C1 (configuration not stated)	3968	5	-2.9	12	9	-17	4
CC(C)CN(C(=O)CSc1n[nH]c(-c2cccs2)n1)C1CCS(=O)(=O)C1 (configuration not stated)	.	10	6.3	-1	-3	5	.
Cc1ccc2c(c1)/C(=C/c1ccccc1)C(=O)N2	3773	6	13	5	8	-3	-3
N#CC1=C(N)N(c2ncn[nH]2)C2=C(C(=O)CCC2)C1c1ccccc1 (configuration not stated)	4447	11	7.4	1	5	1	-7
Cc1ccc(NC(=O)CCOc2ccccc2C)cc1C	3708	-5	-2.8	2	5	-9	-9
Cc1cc(C(=O)Nc2ccccc2N2CCOCC2)c(C)o1	4101	6	4.8	16	-7	-22	-7
Cc1ccc(-c2nc3ncccc3o2)cc1NC(=S)NC(=O)c1ccco1	2207	-7	13	-3	4	-20	6
O=C(Nc1ccc2c(c1)OCO2)N1CCN(c2ncccn2)CC1	22918*	9	0.0	4	8	-30	5
Cc1ccc(C(=O)CC(C(=O)O)P(=O)(c2ccccc2)c2ccccc2)cc1 (configuration not stated)	4007	.	.	.	.	-15	4
CCOc1ccc(C(C(=O)NC2CCCCC2)N(C(=O)c2ccco2)c2ccc(-n3cnnn3)c(C)c2)cc1 (configuration not stated)	2574	-10	-10	2	7	-5	1
C#CCOC(=O)CCCC(=O)Nc1ccccc1OC	3767	9	6.1	4	5	-18	-4
CCN(CC)c1ccc(NC(=O)/C=C/c2cc(Br)ccc2OC)cc1	2297	79	59	-1	12	-7	4
CC(C(=O)N1CCNCC1)n1cc(CCC(=O)O)nn1 (configuration not stated)	.	-4	-2.8	3	9	.	.
CCOc1ccc(S(=O)(=O)N2CCCCC2)cc1NC(=O)CC1OC(=O)c2ccccc21 (configuration not stated)	5941	-2	2.2	3	9	-25	-6
Cc1cc(NC(=O)CN(C)CCOc2ccccc2)ccc1Br	4736	2	-4.4	6	-6	8	-3
COc1ccccc1NC(=O)Nc1ccc2c(c1)nc(C)n2C	4636	11	5.4	-3	1	-54	.
O=C(O)c1ccc(NN=Cc2ccc3c(c2)OCO3)cc1	.	16	-1.7	16	-8	.	.
CCOC(=O)C(NC(=O)c1cccc(Cl)c1)(Nc1sc2c(c1C(N)=O)CCC2)C(F)(F)F (configuration not stated)	2334	-3	11	2	0	-33	-10
Cc1ccc(C(=O)NCC(=O)NCC(=O)OCC(=O)c2ccc(F)cc2)cc1	2546	1	3.1	11	4	-21	-14
CCc1nnc(NC(=O)Cc2ccc(Br)cc2)s1	3575	-2	2.0	9	8	-13	4
Cc1oc(-c2ccccc2Cl)nc1CS(=O)CC(=O)NCc1ccc(Cl)cc1 (configuration not stated)	5156	-7	3.0	8	3	-16	6
CC(=NCCN1CCCCC1)c1c(O)[nH]c(=O)[nH]c1=O	16267*	1	0.1	3	9	-14	0
CC(=O)OC1[C@@]2(C)OC2CC[C@]23OC2C(OC3=O)C2=C(C)C(=O)O[C@@]21O (some centres not stated)	.	0	4.7	4	7	.	.
Cc1ccc(C)c(OCCN2C(=O)NC3(CCc4ccccc4C3)C2=O)c1 (configuration not stated)	2419	-16	11	15	-2	6	-15
CC(=NNC(=O)c1ccncc1)c1ccccc1Cl	4518	3	4.8	24	15	-12	.

Single records, from the list above. Order of values: Bead autofluor, ugtP null kill, RN4220 kill, Mtb hypoxia inh, Mtb hypoxia inh growth, PrP 5UTR inh, BJeLR viability
Listed for COc1ccc(NC(=S)NCCc2ccc(S(N)(=O)=O)cc2)c(OC)c1 → 4161, -1, -5.5, -4, 2, -2, -3
Listed for COC(=O)c1cn(NC(=O)c2cc([N+](=O)[O-])ccc2F)c(=O)c2ccccc12 → 3756, ., ., ., ., -32, 19
Listed for O=C(O)c1ccc(NN=Cc2ccc3c(c2)OCO3)cc1 → ., 16, -1.7, 16, -8, ., .

Back to the main list; the two compounds before the break are reprinted first.
SMILES	Bead autofluor	ugtP null kill	RN4220 kill	Mtb hypoxia inh	Mtb hypoxia inh growth	PrP 5UTR inh	BJeLR viability
Cc1ccc(C)c(OCCN2C(=O)NC3(CCc4ccccc4C3)C2=O)c1 (configuration not stated)	2419	-16	11	15	-2	6	-15
CC(=NNC(=O)c1ccncc1)c1ccccc1Cl	4518	3	4.8	24	15	-12	.
N#Cc1c(-c2ccccc2)cc2nc3ccccc3n2c1N	2065	13	9.8	10	-1	-27	0
COc1ccc(-c2[nH]nc(-c3ccccc3)c2-c2nc3ccccc3[nH]2)cc1	3293	0	0.2	-7	-6	-4	-6
CCOC(=O)CNC(=O)CSc1nnc(SCC(=O)NCC(=O)OCC)s1	7458	8	1.5	6	6	.	-4
COc1cc(/C=N/NC(=O)C(=O)NCc2ccco2)cc(Br)c1O	4019	.	.	.	.	-7	8
CC1(c2ccccc2)O[C@@H]2C[C@H]3[C@@H]4CCC5=CC(=O)C=C[C@]5(C)[C@@]4(F)[C@@H](O)C[C@]3(C)[C@]2(C(=O)CO)O1 (some centres not stated)	4141	-4	19	10	0	-5	-14
COc1ccccc1NC(=O)NC1(C(=O)N2CCC(C)CC2)CCCCC1	6718	5	0.6	8	4	-17	-2
Cc1ccc(C(=O)N2CCN(c3ncccn3)CC2)cc1NC1=NC2CS(=O)(=O)CC2S1 (configuration not stated)	6300	2	2.9	2	-5	-37	-10
CCOC(=O)C1CCCN(Cc2cc(Br)c(OC)cc2OC)C1 (configuration not stated)	22833*	5	3.5	2	4	-11	-1
Cc1ccc(NC(=O)C2CCN(S(=O)(=O)c3ccc4c(c3)CC(C)N4C(=O)C3CCC3)CC2)nc1 (configuration not stated)	4439	11	2.2	-5	-8	8	6
O=C(CSCc1ccc(Cl)cc1)NN=Cc1ccc(Cl)cc1Cl	.	-3	-7.2	4	13	.	.
COCCCNC(=O)c1cc2c(-c3ccc(Cl)cc3)nn(C)c2s1	4208	2	-0.2	.	.	-21	0
Cc1cc(S(=O)(=O)N2CCN(C(=O)CCC(=O)N3CCOCC3)CC2)ccc1Br	4794	4	2.4	15	6	-10	-3
O=C(O)c1cc(-c2ccccc2Cl)n(-c2ccc(F)cc2)n1	3615	1	-8.5	10	1	-18	1
CCOC(=O)C(NC(=O)c1ccccc1Cl)(Nc1ccc(C)c(C)c1)C(F)(F)F (configuration not stated)	2089	11	14	-2	2	-22	-7
Cc1ccc(C)c(N(CC(=O)NC2CCCC2)C(=O)CNC(=O)c2cccs2)c1	3926	5	3.3	-2	1	-18	-1
C=CCNc1ncnc2c1cnn2-c1cccc(C)c1	6705	9	4.0	12	7	-91	-8
O=C(Cn1cncn1)NCc1ccc(Cl)cc1	2024	8	4.1	10	-5	-4	-5
CCS(=O)(=O)c1c([N+](=O)[O-])ncn1C	2241	2	5.8	14	2	-13	-1
Cc1ccc2oc(=O)c(/C=C(\O)c3ccccc3)nc2c1	4344	-1	3.5	12	2	-41	6
O=C1c2ccccc2C(=O)N1CC1=CCS(=O)(=O)C1	5104	6	-0.7	.	.	-1	4
C/C=C/CC1(CC)C(=O)NC(=S)NC1=O	3662	.	.	.	.	-16	-9
COCC(=O)N(C)CC1CCCN(CCc2ccccc2OC)C1 (configuration not stated)	3232	10	3.7	9	-9	-6	-4
CCOC(=O)C(NC(=O)c1ccc(F)cc1)(Nc1sc2c(c1C(N)=O)CCC2)C(F)(F)F (configuration not stated)	2207	-5	12	10	6	-25	-1
O=C(CN1C(=O)C2C3C=CC(C3)C2C1=O)OCC(=O)c1ccc(Cl)c([N+](=O)[O-])c1 (configuration not stated)	5914	8	-0.1	11	-1	-18	8
CC(/C=N\NC(=O)CN1CCN(S(=O)(=O)c2ccc(C)cc2)CC1)=C\c1ccccc1	2111	.	.	.	.	-16	-3
Cn1nnc(NC(=S)NC(=O)c2cccc3c(Cl)cccc23)n1	4562	.	.	.	.	1	0
Cc1cccc(N2CC(O)=C(c3nc4ccccc4n3C)C2=N)c1	?	3	3.5	8	3	-7	-11
O=c1c(C=NO)c(Nc2ccccc2)nc2ccccn12	.	-10	6.2	13	15	.	.
COc1cccc(S(=O)(=O)Nc2ccc3sc(C)nc3c2)c1	16651*	10	4.6	7	-1	-6	-10
O=C(O)CCc1nn2c3ccccc3n(CC(=O)c3cccs3)c2nc1=O	3996	1	2.4	0	6	-20	3
O=S(=O)(/C=C/c1ccccc1)N1CCOCC1	3753	5	5.8	-5	2	-52	-10
Cc1cccc(OCC(=O)Nc2ccccc2N2CCN(C)CC2)c1	4281	5	2.4	2	2	-7	7
COc1ccccc1CNC(=O)c1ccc2nc3[nH]c4ccccc4c3nc2c1	10589	-1	2.3	-1	3	1	7
Cc1ccc2nc(-c3ccc(S(=O)(=O)N4CCCCC4)cc3)cn2c1	4508	6	2.9	8	7	0	7
Cc1cc(C)n(-c2cc(N3CCOCC3)nc(-c3ccccc3)n2)n1	9726	-15	4.4	0	-1	-23	-8
CCNC(=O)c1c(O)c2cccc3c2n(c1=O)CC3	3010	-3	-11	12	8	-27	2
O=[N+]([O-])c1ccccc1OCCCN1CCc2ccccc2C1	.	6	4.0	11	3	-22	-1
CC(C)(C)c1nc2ccccc2c2nnc(SCC(=O)NCc3ccco3)n12	16855*	12	2.1	-1	-2	-23	0
Cc1ccc(CN2C3=NCCN3c3ccccc32)cc1	3693	2	3.2	16	8	-10	6
COc1ccc([N+](=O)[O-])cc1NC1C2CC3CC(C2)CC1C3 (configuration not stated)	8883	1	-0.4	-4	1	1	-3
